# High-throughput results from PubChem.
# NPYLR7 agonist = mosquito NPYLR7 agonism; HEK293T NPYLR7/Galpha15, GCaMP6s calcium fluorescence; AID 1259423; 270,000 tested, 0.15% active; activation, % at 10 µM; in the data active = activation above about 40%;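 also: 0% = vehicle and 100% = reference agonist at the receptor; some compounds past the cut are filed as inactive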
# NPYLR7 agonist max-min = also measured in NPYLR7 agonist; calls as there; activation, %; measured here: Max-Min RFU normalised activation; some inactives read as strong as hits;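 span of the calcium signal over five minutes; 0% = vehicle and 100% = native peptide agonist; compound fluorescence can raise it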
# An asterisk follows results filed as active; & = joins results of further samples. These rows are one share of the data; the hit share may differ from the screen's.
no.	molecule	NPYLR7 agonist	NPYLR7 agonist max-min
1	NC(=N/N=C\c1ccccc1)SC1CC(=O)N(c2ccccc2)C1=O (stereo unspecified)	3	1
2	CCN(CC)CCCC(C)NC(=O)c1c(C)noc1-c1ccco1 (stereo unspecified)	4	11
3	Cc1ccc(N2CN=C(c3ccccc3)NC2=S)cc1	-7	-13
4	O=C(Nc1ccc(-c2ccn[nH]2)cc1)C1CCCN(Cc2ccc(CO)o2)C1 (stereo unspecified)	3	6
5	O=C(Cc1ccc(Oc2nc(Cc3ccccc3)ns2)cc1)NCCN1CCOCC1	14	19
6	CCOC(=O)N1CCC(N(C)C2CCCN(CCc3ccccc3)C2)CC1 (stereo unspecified)	6	4
7	FC(F)(F)c1ccc(NN=Cc2c3ccccc3cc3ccccc23)nc1	17	10
8	COc1ccc(C(C)C)cc1CN1CCN(c2ncc(F)cn2)CC1	5	2
9	COC(=O)CSc1cc(C)nc2c(-c3ccccc3)c(C)nn12	-5	-9
10	COc1ccc(CCn2c(C)nc3c(c(=O)c4ccccc4n3C)c2=O)cc1OC	2	-1
11	COc1ccc(CCNC(=O)CC(c2cccc(OC)c2OC)c2c[nH]c3ccccc23)cc1OC (stereo unspecified)	-5	9
12	C=CCn1c2c(c(=O)[nH]c1=O)C(c1ccc(C)cc1)C1C(=O)OCC1=N2 (stereo unspecified)	3	10
13	CCCc1cc(=O)[nH]c2n[nH]c(=S)n12	-3	-5
14	CC(=O)Nc1ccc(/C=C2\C=Cc3ccccc32)cc1	9	5
15	Cc1ccc(NC(=O)Cn2ncn3nc(-c4ccccc4)cc3c2=O)cc1F	-12	-19
16	O=C(CN1C(=O)C(=O)N(CCC2=CCCCC2)C1=O)NCC(F)(F)F	11	15
17	CC(C)Cc1cc(C(=O)NC[C@@H]2CCNC[C@H]2O)n(C)n1	49	33
18	O=C(O)c1cc(-c2ccsc2)cc(S(=O)(=O)N2CCOCC2)c1	29	15
19	NC(=O)c1cccc(COc2ccccc2I)c1	-3	-3
20	O=C1C(n2c(=O)sc3ccccc32)CCN1CC(F)(F)F (stereo unspecified)	1	0
21	O=S(=O)(c1ccc(Cl)cc1)N1CCCN(c2nc(Cc3ccccc3)nc3c2cnn3-c2ccccc2)CC1	8	12
22	c1ccc2nc3c(nc2c1)c1ccccc1n3CCN1CCOCC1	10	8
23	CCN(CC)S(=O)(=O)c1ccc(Sc2ccc(Cl)cc2)c(N)c1	4	2
24	Cc1nc2ccc(C(=O)N3CCCC4(CC3)CNC(=O)O4)cc2nc1C (stereo unspecified)	6	3
25	COc1cccc(-c2nnc3ccc(OCCNC(=O)Cc4ccc(C)cc4)nn23)c1	-1	-1
26	O=C(NCCNc1nc(-c2cccc(Br)c2)nc2ccccc12)c1cccs1	5	12
27	CS(=O)(=O)Cc1cc(F)ccc1NC(=O)/C=C/c1cc(Br)ccc1F	0	-3
28	Cc1cc(C(F)(F)F)nc(CCNC(=O)c2ccc3nc(C4CC4)oc3c2)n1	0	0
29	COc1cc(C(=O)N2CCOC(c3ccccc3)C2)cc(OC)c1C (stereo unspecified)	78*	59*
30	O=C1CC(Nc2ccc(N3CCOCC3)cc2)C(=O)N1c1ccc(F)cc1 (stereo unspecified)	-13	-18

# An excerpt of these results, with each value named.
26. O=C(NCCNc1nc(-c2cccc(Br)c2)nc2ccccc12)c1cccs1
  NPYLR7 agonist: 5; NPYLR7 agonist max-min: 12
27. CS(=O)(=O)Cc1cc(F)ccc1NC(=O)/C=C/c1cc(Br)ccc1F
  NPYLR7 agonist: 0; NPYLR7 agonist max-min: -3
28. Cc1cc(C(F)(F)F)nc(CCNC(=O)c2ccc3nc(C4CC4)oc3c2)n1
  NPYLR7 agonist: 0; NPYLR7 agonist max-min: 0
29. COc1cc(C(=O)N2CCOC(c3ccccc3)C2)cc(OC)c1C (stereo unspecified)
  NPYLR7 agonist: 78*; NPYLR7 agonist max-min: 59*

# Further compounds.
no.	molecule	NPYLR7 agonist	NPYLR7 agonist max-min
31	O=C(N=Nc1c(O)[nH]c2c(I)cccc12)c1ccncc1	-3	-5
32	Cc1cc(C(=O)N(CCCN2CCOCC2)c2nc3ccccc3s2)nn1C	1	-2
33	OC(Cn1cncn1)c1ccc(Br)cc1Br (stereo unspecified)	8&-4	-1&-5
34	C(=Nn1c(-c2ccc3c(c2)OCCO3)csc1=NCCc1ccccc1)c1ccccn1	-3	-2
35	COC(=O)c1ccc(N2C(=O)CSC2c2ccccc2Br)cc1 (stereo unspecified)	-7	-10
36	Cc1c(C)n2c3c(=O)n(CCc4ccccc4)c(=O)n(C)c3nc2n1CCO	-9	-13
37	CCn1cc(C(=O)NN)c(C)n1	-15	-24
38	CCCCN(Cc1cccn1Cc1cccc(C(F)(F)F)c1)C(=O)Nc1ccc(OC)cc1OC	-7	2
39	c1coc(-c2nnc(CSc3ccc4ccccc4n3)o2)c1	2	1
40	COc1ccc2nc(-c3ccc(NC(=O)c4ccccc4C)cc3)cn2n1	-9	-15
41	COc1ccc(C(=O)N2CCC(c3cc(Cc4ccccc4)[nH]n3)CC2)o1	13	-1
42	CC(c1ccccc1)N(Cc1cccc(Oc2ccccc2)c1)Cc1nc(C(=O)NCc2ccc(F)cc2)co1 (stereo unspecified)	-3	0
43	CC(=O)NC(C(=O)OC(C)c1nc2ccccc2n1C)C1CCCC1 (stereo unspecified)	7	6
44	CC(NC(=O)N(C)CC(F)F)c1ccc(OCC(F)(F)F)cc1 (stereo unspecified)	-8	-13
45	CCC(Oc1ccc2c(c1)CCCC2)C(=O)NC(C)(CO)CO (stereo unspecified)	3	0
46	O=C(c1cc(-c2ccccc2)n[nH]1)N(Cc1ccsc1)C1CC1	-1	-2
47	CCCCOc1ccc(C(=O)Nc2nnc(SCc3ccccc3F)s2)cc1	-5	-6
48	O=C(C1CCC(CNc2c(N3CCCCC3)c(=O)c2=O)CC1)N1CCCCC1 (stereo unspecified)	3	4
49	Cc1nc(CN2CCC(Cc3ccc(F)cc3)CC2)co1	12	7
50	CCNC(=O)C12N=CNN=C1N(C)C(=O)N2C (stereo unspecified)	26	13
51	COCCCN(CC(=O)N1CCSC1c1ccc(F)cc1)Cc1ccc(F)c(F)c1 (stereo unspecified)	-8	1
52	Cc1cc(=O)[nH]c(C)c1NC(=O)c1cccc(CN2CC[C@H](O)C2)c1	4	-9
53	COCCN(Cc1cc(NC(=O)C2CCCC2)ccc1N(C)C)C(=O)NC(C)(C)C	22	19
54	COc1cc(OC)cc(C(=O)N(Cc2nc3cc(C)ccc3o2)Cc2cc(F)ccc2F)c1	-3	-2
55	C=C(C)C(O)(C(=C)C)c1ccc(CN(CCC)Cc2ccccc2OC)o1	-27	-13
56	CCc1nc([C@H]2CN(C)C[C@@H]2C(=O)NCC23CCCN2CCC3)c(C)[nH]1	3	2
57	O=C(NC(C(=O)NC1CC1)C1CCN(C(=O)C2CCCC2)CC1)c1ccc(F)cc1 (stereo unspecified)	9	7
58	CCOC(=O)c1[nH]c2ccccc2c1NC(=O)Cc1cccc2ccccc12	2	2
59	COC(=O)c1c(NC(=O)CN(Cc2ccccc2)Cc2ccccc2)sc2c1CCC2	-3	-11
60	CC(N[C@@H]1CCCC[C@H]1O)c1ccccc1 (stereo partly specified)	9	6

# Results in sequence from above:
# Entries 17–21 in NPYLR7 agonist read 49, 29, -3, 1, 8
# Entries 17–21 in NPYLR7 agonist max-min read 33, 15, -3, 0, 12

# Other structures follow.
# Results follow in this order: NPYLR7 agonist, NPYLR7 agonist max-min
61) Cc1ccc(C)n1C1CCN(CCOc2ccccc2C#N)CC1
  7, 3
62) CNC(=O)CCNC(=O)C(C)(C)c1ccc(Cl)c(Cl)c1
  3, 2
63) NC(=O)C1Cc2ccccc2CN1Cn1c(=O)oc2ccccc21 (stereo unspecified)
  -1, 6
64) COc1ccccc1OCC1CN(C(=O)Cc2ccc(F)cc2)CCO1 (stereo unspecified)
  -7, -8
65) CCCCCCCCC(=O)N1CCN(c2nc(-c3cccc(C(F)(F)F)c3)nc(C)c2C)CC1
  -10, -2
66) FC(F)(F)c1nc(N2CCCC2c2ccc3c(c2)OCCO3)c2ccccc2n1 (stereo unspecified)
  6, 7
67) COC(=O)[C@@H]1CCCN1C(=O)CCc1nnc(CCC2CCCCC2)o1
  6, 3
68) CN(CC(=O)O)C(=O)c1cn(-c2ccccc2)nc1-c1ccc2c(c1)OCCO2
  0, -1
69) CC(C)N(C)S(=O)(=O)N1CCc2sccc2C1c1cccs1 (stereo unspecified)
  13, 9
70) CCC(C)NC(=O)c1cc(NC(=O)c2cccc(Br)c2)ccc1N1CCc2ccccc2C1 (stereo unspecified)
  20, 11
71) CC(=O)Nc1ccc(-n2c(CCC(=O)NCc3cccs3)ccc2-c2ccc(F)cc2)cc1
  1, -1
72) CN(Cc1cccc2cnccc12)c1nc2nonc2nc1NC1CC1
  4, 0
73) COCCN(Cc1ccc(OC)c(OCc2nc(CO)cs2)c1)C(C)=O
  25, 29
74) O=C(Nc1cc(Cl)nc(NC(=O)C2CCCC2)n1)C1CCCC1
  4, 2
75) O=C(c1cc2ccccc2c(=O)[nH]1)N1CCCC(n2ccnc2)C1 (stereo unspecified)
  -6, -7
76) NC(=O)c1ncn(C2O[C@H](CO)[C@@H](O)[C@H]2O)c1N (stereo partly specified)
  5, -1
77) CC(Cn1cncn1)Nc1ccc(-c2nccn2C)nn1 (stereo unspecified)
  -2, -3
78) Cc1cc(C)cc(C(=O)NCCCS(=O)(=O)N2CCc3ccccc3C2)c1
  -9, -10
79) Cn1cnc2c(F)c(Nc3ccc(Br)cc3Cl)c(C(=O)NOCCO)cc21
  -14, -17
80) CCN(CC)C1=C(c2c(C)[nH]n(-c3ccc(F)cc3)c2=O)C(=O)N(c2cccc(Cl)c2)C1=O
  16, 28
81) Cc1cc(C(=O)N(C)Cc2ccc3c(c2)OCO3)n[nH]1
  -15, -13
82) CC(NC(=O)CON=C1CCN(C(=O)C2CCCO2)CC1)C1CC2CCC1C2 (stereo unspecified)
  0, 17
83) COCCNC(=O)[C@H]1C[C@@H](O)[C@H](O)[C@@H]2N=C(Nc3cccc4ccccc34)S[C@@H]21
  -9, -16
84) CCOC(=O)c1c(-c2ccc(OC)cc2)csc1NC(=O)C12CC3CC(CC(C3)C1)C2
  -4, -9
85) Cc1cccc(C(=O)N2CCN(C(c3ccccc3)c3ccc(Cl)cc3)CC2)c1 (stereo unspecified)
  19, 26
86) Cc1ccc(C2(O)CCN(c3ccc(-c4nccn4C)nn3)CC2)nc1
  0, -10
87) O=C(CCC1CCCN(C(=O)C2=CCCC2)C1)N1CCN(Cc2ccccc2)CC1 (stereo unspecified)
  12, 6
88) Cc1cc(SCC(N)=O)n2nc(C)c(-c3ccc(Cl)cc3)c2n1
  -1, 0
89) CCc1cc2c(=O)n(CCCOC)c(SC(C)C(=O)N3CCCc4ccccc43)nc2s1 (stereo unspecified)
  1, 14
90) CC(c1nc2cc(Cl)ccc2c(=O)n1C)N(CCc1ccccc1)C(=O)Nc1cccc(Cl)c1Cl (stereo unspecified)
  -5, 0

# Part of the list above, with each value named.
84	CCOC(=O)c1c(-c2ccc(OC)cc2)csc1NC(=O)C12CC3CC(CC(C3)C1)C2
- NPYLR7 agonist: -4
- NPYLR7 agonist max-min: -9

85	Cc1cccc(C(=O)N2CCN(C(c3ccccc3)c3ccc(Cl)cc3)CC2)c1 (stereo unspecified)
- NPYLR7 agonist: 19
- NPYLR7 agonist max-min: 26

86	Cc1ccc(C2(O)CCN(c3ccc(-c4nccn4C)nn3)CC2)nc1
- NPYLR7 agonist: 0
- NPYLR7 agonist max-min: -10

87	O=C(CCC1CCCN(C(=O)C2=CCCC2)C1)N1CCN(Cc2ccccc2)CC1 (stereo unspecified)
- NPYLR7 agonist: 12
- NPYLR7 agonist max-min: 6

# Following part.
# Results follow in this order: NPYLR7 agonist, NPYLR7 agonist max-min
91) Cc1nc2n(n1)C(=O)C(C(c1ccccc1F)N1CCC3(CC1)OCCO3)S2 (stereo unspecified)
  -2, -4
92) O=C(Nc1sc2ccccc2c1Cl)OCC(F)(F)F
  -3, -5
93) COc1ccccc1-c1cc2c(SCC(=O)Nc3ccc(C(C)=O)cc3)nccn2n1
  -1, -2
94) O=C(CNC(=O)c1ccc2c(c1)OCO2)N=Nc1c(O)[nH]c2ccccc12
  -3, -11
95) COc1ccc(-c2nc(OC(C)C)nn2-c2ccc(NC(=O)c3cccc(OC)c3)cc2)cc1
  34, 35
96) Cc1cc(-c2nnc(NC(=O)c3ccc(C(=O)c4ccccc4)cc3)o2)nn1C
  -12, -19
97) O=S(=O)(C1=Cc2ccccc2CC1)N1CCCCC1c1nc2ccccc2s1 (stereo unspecified)
  2, -2
98) O=S(=O)(NCc1nnnn1-c1ccccc1)c1ccccc1C(F)(F)F
  18, 7
99) Cc1ccc(C2NC(=O)N(C)C3=C2C(=O)N(CC(=O)NCCc2cccs2)C3)cc1 (stereo unspecified)
  18, 23
100) COc1ccc(CC(=O)N(C)Cc2cc(Br)cs2)cc1OC
  6, 4
101) COc1cccc(CNC(=O)C2CCN(C(=O)[C@@H](Cc3ccccc3)NC(=O)Nc3c(C)cccc3C(C)(C)C)CC2)c1
  -2, 5
102) CCCCC(=O)Nc1nc2c(C)cccc2s1
  0, -6
103) COc1cccc(CN2CCCC(c3nc(-c4cccnc4)no3)C2)c1O (stereo unspecified)
  -1, -5
104) COCCCN(CC(=O)Nc1cc(C(C)(C)C)nn1-c1ccc(C)cc1C)C(=O)C1CCC1
  12, 15
105) Cc1cn2c3c(=O)n(Cc4ccccc4Cl)c(=O)n(C)c3nc2n1CCCN1CCOCC1
  -10, -7
106) O=C1CC(C(F)(F)C(F)(F)C(F)(F)C(F)(F)F)=Nc2ccccc2N1
  0, -1
107) O=C(O)[C@H]1C[C@]2(CCCCNC2=O)N(C(=O)CCc2ccccc2)[C@H]1c1ccco1
  3, 8
108) Cc1cc2ncn(CC(=O)N3C(C)CCCC3C)c2cc1C (stereo unspecified)
  -2, 1
109) CCS(=O)(=O)c1ccc(S(=O)(=O)NCC#N)cc1
  -2, -6
110) CCc1cc2c(=O)c(-c3nncn3-c3ccccc3)coc2c(CN2CCCCC2)c1O
  9, 8
111) CC(=O)N(C)c1ccc(NC(=O)CN2CCN(c3ccncc3C)CC2)cc1
  8, 5
112) CCOc1ccc(C2NC(=O)NC(C)=C2C(=O)OC)cc1 (stereo unspecified)
  -2, -11
